# Marburg entry inh – qHTS for inhibitors of binding or entry into cells for Marburg Virus; Marburg virus pseudotyped entry inhibition, cell reporter; control for the full effect not named in the record; about a third of the inactives were read at about 46 µM; Potency, µM (doses to about 37.8 µM), for inactives: top-dose activity change, negative = inhibition, most hits filed as inhibitors; AID 540276, 2011; 1.8% of 300,000 active; active = well fitted inhibition curve with a large enough effect; inconclusive = small, poorly fitted or top-dose-only effect, or effect the other way; inactive = flat fitted curve, though single readings scatter; tested in HEK293 cells; about a fifth of its hits are not listed in these tables; note: luciferase read-out
# * = called active by the depositor; u = inconclusive; & = joins results of further samples; [ ] = dose if it differs, or a comment. % is set by controls: 0 for no effect and ±100 for the full control effect; potency is the fitted concentration of half-maximal effect.
SMILES,Marburg entry inh
CCN(CC)CCN1C(=O)C(=O)/C(=C(\O)c2ccc(Cl)cc2)[C@@H]1c1ccncc1,2%
CC1C(=O)C(Cc2cn(CCC3OCCO3)nn2)CCS(=O)(=O)N1Cc1ccc(-c2ccc(Cl)nc2)cc1 (configuration not stated),u
CC=COC(=O)N[C@@H](c1ccccc1)[C@]1(C(=O)OC)CCCC1=O,u
COC(=O)c1ccc(N2C(=O)C[C@H](N3CCN(C(=O)c4ccco4)CC3)C2=O)cc1,21%
CC(=O)OC[C@@H]1O[C@H](CCO/N=C\[C@@H](C)[C@H](OCc2ccccc2)C(C)C)C=C[C@@H]1OC(C)=O,u
COc1ccc(OC)c(C2/C(=C(\O)c3ccc4c(c3)OCCO4)C(=O)C(=O)N2CCCN(C)C)c1 (configuration not stated),2%
COc1ccc(O[C@H]2C=C[C@@H](c3ccccc3)O[C@@H]2CO/N=C(\C)CCN2CCCc3nc(C)c(C)cc32)cc1,u
CCOC(=O)CCN1C(=O)[C@H]2[C@H]3[C@H](O)[C@H](O)C/C(=N\NC(=O)OCc4ccccc4)[C@H]3CC[C@H]2C1=O,u
COC(=O)C(Cc1cc(Br)c(OC)c(Br)c1O)=NO,-16%[14.2 µM]
CC(C)CO/N=C1/C[C@@H](O)[C@@H](O)[C@@H]2[C@@H]3C(=O)N(Cc4ccccc4)C(=O)[C@H]3CC[C@H]12,1%[14.2 µM]
COC(=O)C1C2CC(C)C(c3ccccc32)N1C(=O)C(F)(F)F (configuration not stated),u
COC(=O)C1=C(C(=O)OC)[C@@H]2Nc3ccccc3[C@@]23C[C@@H](C(=O)OC)N(C(=O)NC(C)(C)C)C3=N1,2%[14.2 µM]
O=c1/c(=C\c2ccccn2)sc2n1CN(c1ccccc1)CN=2,14%
N[C@@H](Cc1ccc(Oc2ccc(O)cc2)cc1)C(=O)O,-6%
COC(=O)CC=C[C@@H](C)[C@H](O)c1ccccc1Br,u

# Laid out differently: entries from further up
mol	Marburg entry inh
CCN(CC)CCN1C(=O)C(=O)/C(=C(\O)c2ccc(Cl)cc2)[C@@H]1c1ccncc1	2%
CC1C(=O)C(Cc2cn(CCC3OCCO3)nn2)CCS(=O)(=O)N1Cc1ccc(-c2ccc(Cl)nc2)cc1 (configuration not stated)	u
O=c1/c(=C\c2ccccn2)sc2n1CN(c1ccccc1)CN=2	14%
CC(=O)OC[C@@H]1O[C@H](CCO/N=C\[C@@H](C)[C@H](OCc2ccccc2)C(C)C)C=C[C@@H]1OC(C)=O	u

# The listing continues:
SMILES,Marburg entry inh
Cc1ccccc1CN1[C@@H](c2ccccc2)COc2c(Cl)cccc2S1(=O)=O,u
CCOC(=O)N1CCN([C@@H]2OC(=O)c3ccccc32)CC1,23%[46.1 µM]
C=CCCCN1C=C(C(C)=O)C(c2ccccc2)NC1=O (configuration not stated),18%[14.2 µM]
CCn1cc(C(=O)O)c(=O)c2c1CC(N1CCNCC1)=C(F)C2,-7%&-7%
COc1cccc([C@H]2Oc3ccc(OC)cc3C(=NOC[C@@H](O)COCc3ccco3)[C@H]2O)c1,14%[14.2 µM]
O=C1[C@H]2[C@H]3[C@H](O)[C@H](O)C/C(=N/OCc4ccccc4)[C@H]3CC[C@@H]2C(=O)N1C1CCCCC1,-25%[14.2 µM]
CC(=O)OC[C@H]1O[C@H](C#Cc2ccc(C(C)(C)C)cc2)C=C[C@@H]1OC(C)=O,u
CCN1C(=NCCc2c[nH]c3ccccc23)NC(c2ccccc2)C(C(=O)OC)=C1C (configuration not stated),u
COc1ccccc1[C@H]1/C(=C(\O)c2ccc(C)cc2)C(=O)C(=O)N1Cc1ccco1,-1%[46.1 µM]
C[C@@H]1CC[C@H]2C(=O)O[C@@H](Cc3ccccc3)CN2[C@H]1c1ccc(Br)cc1,7%[14.2 µM]
Cc1cccn2c(=O)c3cc(C#N)c(=NC(=O)c4ccncc4)n(Cc4ccco4)c3nc12,-5%
C1CCC2=C(C1)CN1CCCC1=N2,3%[46.1 µM]
CCOC(=O)CCCNC(=O)N1CCc2nc(-c3ccc(OC)cc3C)c3c(c2C1)CO[C@@H](c1ccccc1)C3,-5%&-5%&-5%[14.2 µM]
CCOC(=O)[C@]12C[C@]3(C)CCN(C(=O)N[C@@H]1c1ccccc1)[C@@H]32,34%[14.2 µM]
CC(CCN1CCCCc2nc(C)c(C)cc21)=NO[C@@H](C)c1cn([C@H](CO)Cc2ccccc2)nn1,-12%[14.2 µM]
CC(=O)OC[C@H]1O[C@H](c2cc(C)cc(C)c2)C=C[C@H]1OC(C)=O,u
COC(=O)[C@]1(C=C2c3ccccc3C[C@H](OC)[C@@H]2C)[C@@H]2CC=C[C@@H]21,-8%[14.2 µM]
COc1cc2c(c(OC)c1OC)CC(C)=C(C)CC2NC(=O)C(F)(F)F (configuration not stated),-9%[14.2 µM]
CC(C)C[C@H]1COc2cc(NC3CC3)ccc2S(=O)(=O)N1,u
CCOC(=O)N/N=C1\C[C@@H](O)[C@@H](O)[C@@H]2[C@@H]3C(=O)N(Cc4ccc5c(c4)OCO5)C(=O)[C@@H]3CC[C@@H]12,-22%[14.2 µM]
CCCNC(=O)OC[C@@H]1O[C@H](CCO/N=C\C[C@H]2C=C[C@H](OC(C)=O)[C@@H](COC(C)=O)O2)C=C[C@@H]1Oc1ccc(OC)cc1,6%[14.2 µM]
COc1ccc(OC)c([C@@H]2C(C#N)=C(N)Oc3cc(C)n(Cc4ccccn4)c(=O)c32)c1,-1%
CC1(C)CC(=O)C2=C(C1)O[C@@]1(c3ccsc3)Cc3cc(C#N)ccc3[C@H]2O1,u
CCOC(=O)[C@@]1([C@@H](NC(=O)OC)c2ccccc2)CCCC1=O,12%[14.2 µM]
CC(CCN1CCCCc2nc(C)c(C)cc21)=NO[C@H](C)c1cn([C@@H]2COC[C@@H]2O)nn1,4%[14.2 µM]
Oc1ccc2c(c1)[C@H]1CCC[C@]1(N1CCOCC1)O2,22%
CCN1C(=NCCc2cccnc2)NC(c2ccccc2)C(C(=O)OC)=C1C (configuration not stated),u
COc1ccc(NC(=O)N2CCc3nc(COc4ccccc4)c4c(c3C2)CO[C@@H](C)C4)cc1,-19%&-19%&-19%[14.2 µM]
COC(=O)[C@H]1O[C@@H](c2c(OC)c(OC)c(C)c(OC)c2OC)[C@H](C)[C@@H](O)[C@@H]1C,6%[14.2 µM]
C=CC1=C(C)C2=NC1=CC1=NC(=CC3=NC(=CC4=NC(=C2)C(C)=C4CCC(=O)O)C(CCC(=O)O)=C3C)C(C=C)=C1C,-15%
C=C(C)CCN1C(=O)NC(c2cccc(C(F)(F)F)c2)C(C(=O)OC)=C1C (configuration not stated),u
CCOC(=O)C1C=CN=C1C (configuration not stated),14%
CCCCCCN1C[C@@H](n2cc(COC(=O)c3ccccc3)nn2)[C@H](O)C[C@H]1c1ccc(Cl)cc1,u
Cc1ccccc1CN1CCSCCS1(=O)=O,u
COC(=O)[C@@]1(C=C2c3ccc(F)cc3[C@@H](OC)[C@@H]2C)[C@@H]2CC=C[C@@H]21,0%[14.2 µM]
CC1=CC[C@@H](COc2ccccc2)O[C@@]2(C1)C(=O)N(Cc1ccc(F)cc1)c1ccccc12,-2%[14.2 µM]
Cc1cc(N/C=C\C(=O)c2cccc3ccccc23)no1,2%
C=CCN(C(=O)CCC(=O)O)[C@H]1CC(=O)N(c2ccc(OCCC)cc2)C1=O,-1%
C=CC[C@@H]1C=CC(O/N=C(\C)CCC(=O)OC[C@H]2O[C@H](C#Cc3ccccc3)C=C[C@@H]2Oc2ccc(C)cc2)[C@@H](CO)O1 (some centres not stated),29%[14.2 µM]
CN1C=CC(=O)[C@@H](O)[C@@H]1c1ccccc1Br,u
COc1ccc([C@@H](NC(=O)C(F)(F)F)C2CCCC=C2c2ccccc2)cc1OC (some centres not stated),3%[14.2 µM]
COC(=O)CC(Oc1c(C)n(C)c2ccccc2c1=O)c1ccccc1 (configuration not stated),-5%[14.2 µM]
CN([C@H]1CCS(=O)(=O)C1)S(=O)(=O)c1cccc2nsnc12,21%
CCN1C(=O)[C@H]2[C@H]3[C@H](O)[C@H](O)C/C(=N\OCC[C@@H]4C=C[C@H](OC(C)=O)[C@@H](COC(C)=O)O4)[C@@H]3CC[C@H]2C1=O,-15%[14.2 µM]
CCOC(=O)NN=C1C[C@@H](O)[C@@H](O)[C@@H]2[C@H]3C(=O)N(Cc4ccc5c(c4)OCO5)C(=O)[C@@H]3CC[C@H]12,-22%[14.2 µM]
C[C@@H]1CC[C@H]2C(=O)N(Cc3cccc([N+](=O)[O-])c3)C[C@H](O)CN2[C@@H]1c1ccc(Br)cc1,u
CCc1cc2c(nc1CC)CCN(CCC(C)=NO[C@@H](C)c1cn([C@H](CO)Cc3ccccc3)nn1)C2,-27%[14.2 µM]
C=CCCCN1C=C(C(=O)OCC)C(c2ccccc2)NC1=O (configuration not stated),-11%[14.2 µM]
CCOC(=O)C1CSCCS(=O)(=O)N1Cc1cc(F)ccc1Br (configuration not stated),u
COC(=O)C[C@H]1SC(=O)NC1=O,0%
COC(=O)CC=C[C@@H](C)[C@@H](C=NOC[C@@H](O)COCc1ccco1)NS(=O)(=O)c1ccc(C)cc1,21%[14.2 µM]
COC(=O)CC=C1c2ccccc2[C@@H](O)[C@@H]1C,u
COC(=O)C1=C(C(=O)OC)[C@@H]2N(Cc3ccccc3)c3ccccc3[C@@]23C[C@@H](C(=O)OC)N(C(=O)NCCBr)C3=N1,8%[14.2 µM]
O=C1OCCC=C1[C@@H](O)CCc1ccccc1,22%[14.2 µM]
CC1(OC(=O)C2CCCC2)C(=O)C=C2C=C3CCCN3C=C2C1=O (configuration not stated),-15%&-15%[14.2 µM]
C=CCN1c2ccccc2[C@]23C[C@@H](C(=O)OC)N(C(=O)Nc4ccc(C(F)(F)F)cc4)C2=NC(C(=O)OC)=C(C(=O)OC)[C@H]13,17%[14.2 µM]
C#CCCCO/N=C1/C[C@@H](O)[C@@H](O)[C@@H]2[C@H]3C(=O)N(c4ccc(F)cc4F)C(=O)[C@@H]3CC[C@H]12,-6%[14.2 µM]
COCOc1ccc(Br)cc1C(=O)/C=C\c1ccc2c(c1)OCO2,6%[14.2 µM]
C[C@H](N[C@@H](C)CCc1ccccc1)[C@H](O)c1ccc(O)cc1,-44%&-44%
CCc1nc(NC[C@H]2CCCO2)c(C#N)c2c1COC(C)(C)C2,5%[46.1 µM]

# Continuation.
SMILES,Marburg entry inh
COC(=O)N[C@@H](C=Cc1ccccc1)[C@@H](C)[N+](=O)[O-],2%[14.2 µM]
CC1CCCCC1OCCNC(=O)c1ccco1 (configuration not stated),13%[46.1 µM]
COc1ccc(OC)c(-c2ccccc2/C=N/NS(=O)(=O)c2ccc(C)cc2)c1,u
CCN1C(=O)[C@H]2[C@H]3[C@H](O)[C@H](O)C/C(=N/NC(=O)OCc4ccccc4)[C@@H]3CC[C@@H]2C1=O,-8%[14.2 µM]
O=C(c1cccs1)N1C[C@@H](n2cc(-c3ccc(F)cc3)nn2)[C@@H](O)C[C@@H]1c1ccc(Cl)cc1,u
Cc1nnc(C)n1/N=C\c1cc(Br)cc(Br)c1O,-10%
C[N+]1(C)CCO[C@@](O)(c2ccc(-c3ccc([C@]4(O)C[N+](C)(C)CCO4)cc3)cc2)C1,16%
C[C@H](NC(=O)N1CCc2nc(-c3ccccc3)c3c(c2C1)CO[C@@H](C)C3)c1ccccc1,-19%&-19%[14.2 µM]
CC=C[C@@H]1Oc2ccc(OC)cc2N2C(=O)[C@H](C)[C@@H](OCOC)[C@H]12,-23%[14.2 µM]
C[C@@H]1CN=C(Nc2ccc(N(C)C)cc2)S1,8%
Cc1cc2c(c(=O)n1Cc1ccccc1)[C@H]1O[C@](CCCCN3C(=O)c4ccccc4C3=O)(Cc3ccccc31)O2,u
CCOC(=O)c1[nH]c2ccc(OC)cc2c1NC(=O)CCN1CCC[C@@H](C)C1,3%[46.1 µM]
CCCCCCN1C(=O)CC[C@@]23C1=NC(C(=O)OC)=C(C(=O)OC)[C@@H]2N(Cc1ccccc1)c1ccccc13,-28%[14.2 µM]
COC(=O)C1=C(C)N(CC2CC2)C(N(C)Cc2ccc(OC)cc2)=NC1c1ccccc1 (configuration not stated),-14%[14.2 µM]
CN(C)[C@H]1CCN([C@H]2C[S+](=O)([O-])N[C@H]2COCc2ccccc2)C1,u

# Shown bar-delimited: entries from further up.
smiles | Marburg entry inh
COC(=O)N[C@@H](C=Cc1ccccc1)[C@@H](C)[N+](=O)[O-] | 2%[14.2 µM]
CC1CCCCC1OCCNC(=O)c1ccco1 (configuration not stated) | 13%[46.1 µM]
COc1ccc(OC)c(-c2ccccc2/C=N/NS(=O)(=O)c2ccc(C)cc2)c1 | u
CCN1C(=O)[C@H]2[C@H]3[C@H](O)[C@H](O)C/C(=N/NC(=O)OCc4ccccc4)[C@@H]3CC[C@@H]2C1=O | -8%[14.2 µM]
O=C(c1cccs1)N1C[C@@H](n2cc(-c3ccc(F)cc3)nn2)[C@@H](O)C[C@@H]1c1ccc(Cl)cc1 | u
Cc1nnc(C)n1/N=C\c1cc(Br)cc(Br)c1O | -10%
C[N+]1(C)CCO[C@@](O)(c2ccc(-c3ccc([C@]4(O)C[N+](C)(C)CCO4)cc3)cc2)C1 | 16%

# (next part)
SMILES,Marburg entry inh
COC(=O)CCC(=O)OC1(C)C(=O)C=C2C=C(C3CC3)N(c3ccc(OC)cc3)C=C2C1=O (configuration not stated),u
C#CCCCON=C1C[C@@H](O)[C@@H](O)[C@@H]2[C@H]3C(=O)N(C(C)(C)C)C(=O)[C@@H]3CC[C@H]12,12%[14.2 µM]
C/C(CCN1CCCCc2nc(C)c(C)cc21)=N\O[C@H](C)CN1CCCc2nc(C)c(C)cc21,u
C=CCOc1ccc([C@H]2/C(=C(/O)c3ccc(F)cc3)C(=O)C(=O)N2CCCN(C)C)cc1,21%

# A portion of the library (hit frequency here may not be typical).
